Vaccinia mCherry = vaccinia inhibition (mCherry reporter); Vaccinia virus mCherry reporter infection, fluorescence; about a quarter of the inactives have no number; Potency, µM (highest dose often 36.5 µM), for the others: at the highest dose activity change, negative = inhibition, usual class: inhibitors; 0.63% of 310,000 active; active = well fitted inhibition curve with a large enough effect; inconclusive = small, poorly fitted or top-dose-only effect; inactive = no such curve, though single readings can be large or run the other way; tested in A549 cells; note: nearly all actives have a fitted effect of over 35% in size; inactives centre near -10
VACV Venus inh = vaccinia inhibition (Venus reporter); Vaccinia virus Venus reporter expression, fluorescence; Potency, µM (top dose mostly 36.5 µM), for the others: at the top dose activity change, negative = inhibition, hits mostly inhibitors; 0.46% of 330,000 active; AID 720580; active means well fitted inhibition curve with a large enough effect; inconclusive means small, poorly fitted or top-dose-only effect; inactive means no such curve, though single readings can be large or run the other way; tested in A549 cells; note: nearly all actives have a fitted effect of over 30% in size; inactives centre near -10
Active calls of the source: *; i = inactive; u = inconclusive; x = not tested or not shown; & = joins results of further samples; [ ] = another dose, or the depositor's remark. % is set by controls: 0 for no effect and ±100 for the full control effect; potency is the fitted concentration of half-maximal effect.

SMILES	Vaccinia mCherry	VACV Venus inh
Cc1onc(-c2ccccc2Cl)c1C(=O)NCc1ccc2c(c1)cc(C)n2C	i	70%[activator]
COc1ccc(NC(=O)N2CCN(c3nc4ccccc4n3C(C)C)CC2)cc1	-21%	-18%
COc1ccc2c(=O)c(CC(=O)O)coc2c1	-11%	-10%
Cc1ccc(CNC(=O)CCC(=O)N2CCSc3ccccc32)cc1	-12%	-10%
COC(=O)/C(C#N)=C/c1c(N2CCN(C)CC2)nc2ccccn2c1=O	-16%	-19%
Cc1nn(C)cc1C(C(=O)NC1CCCCC1)N(C(=O)Cc1cccs1)c1ccc(Cl)cc1 (centres undefined)	-4%	-2%
Cc1c(CCO)sc[n+]1CC(=O)c1ccc(F)cc1	-1%	-18%
CC(C)OC(=O)Cn1c(=O)oc2ccccc21	-11%	-5%
CC(C)(c1ccc(O)c([N+](=O)[O-])c1)c1ccc(O)c([N+](=O)[O-])c1	-27%	2%
CCN(CC)CCCNCC(=O)Nc1ccc2c(c1)CCC2	i	-4%
Cn1c(=O)oc2cc(S(=O)(=O)Nc3cccc(F)c3)ccc21	-6%	-4%
O=S1(=O)CC(N2CCN(CCO)CC2)CN1Cc1cn(Cc2ccc(F)cc2)nn1 (centres undefined)	2%	-3%
NNC(=O)c1oc2nc(-c3ccccc3)cc(-c3ccccc3)c2c1N	-20%	-9%
Cc1csc(/N=C/c2ccc([N+](=O)[O-])cc2)n1	-15%	-15%
COc1cccc(NC(=O)CCC2CCN(Cc3nccs3)CC2)c1	-21%	-16%
COc1ccc(NC(=O)CN(C)CC(=O)Nc2ccc(Cl)cc2[N+](=O)[O-])cc1	-23%	-17%
COc1ccc2c(CNCc3cccs3)c(C(=O)O)n(Cc3ccc(C)cc3)c2c1	i	-6%
CC1(C(=O)NS(=O)(=O)c2cccc(OC(F)F)c2)CCN1C(=O)CCc1cccs1 (centres undefined)	-11%	7%
Cc1cc(=O)[nH]c(N/N=C/c2cccc(Br)c2)n1	-13%	-11%
CSCCC(NC(=O)COc1ccccc1)C(=O)N1CCCCC1 (centres undefined)	-13%	-6%
CC1CCc2nc(-c3cc4c(ccc5ccccc54)oc3=O)sc2C1 (centres undefined)	29%	30%
COc1ccc(NC(=O)[C@@H]2CC=C[C@@H]3CCN(C4CC4)C(=O)[C@@H]32)cc1	i	-7%
C=Cc1ccc(Cn2c(=O)n(-c3ccccc3C)c(=O)c3c4c(sc32)CN(C(C)=O)CC4)cc1	-34%	-25%
Nn1c(Cc2ccc(F)cc2)n[nH]c1=S	-3%	-11%
CCn1c(SCC(=O)N/N=C/C=C/c2ccccc2[N+](=O)[O-])nnc1-c1ccccc1	-14%	-4%
CN(C)S(=O)(=O)c1ccc(N2CCCC2)c(C(=O)Nc2ccccc2)c1	-17%	-14%
Cc1ccc(-n2ncc3c(NCCCn4ccnc4)ncnc32)cc1C	-18%	-20%
COc1cc(CCN(C(=O)c2cc3ccccc3[nH]2)C(C)c2nc3ccccc3[nH]2)cc(OC)c1 (centres undefined)	26%	-15%
COc1ccc(Cc2nnc(NC(=O)CSc3ccc(C)cc3)s2)cc1OC	-8%	-6%
CCOC(=O)c1cc(-c2ccc(/C=C3/C(=O)N(c4ccc(C(=O)O)cc4)N=C3C)o2)ccc1Cl	i	-14%
O=C(OCc1nc2ccc(Cl)cc2n1CCO)c1ccc(O)cc1	-10%	-13%
COC(=O)CNC(=O)COC(=O)/C=C/c1cccs1	-9%	-1%
Cc1ccc(CNC(=O)c2ccc(F)c(S(=O)(=O)N3CCOCC3)c2)cc1	i	-10%
CCC1=Nc2cc(C(=O)N3CCC4(CC3)OCCO4)ccc2Sc2ccccc21	-10%	-9%
COc1ccc(NC(=S)N2CCC(C(=O)c3ccc(OC)cc3)CC2)cc1	-21%	-24%
CC(C)(C)/C(O)=C/c1nc2ccccc2oc1=O	-27%	-12%
COc1cc(OC)c(OC)cc1CN1CCc2nc(Nc3ccc4c(c3)OCCO4)ncc2C1	-15%	-12%
C[Si](C)(C)n1ccnc1	i	-11%
COc1ccc(NC(=O)Cn2c(=O)n(Cc3ccccc3OC)c(=O)c3cccnc32)cc1Cl	-1%	-21%
COCc1ccc(C(=O)NC2CCCN(Cc3ccccc3F)C2)o1 (centres undefined)	i	-4%
CN1CCc2cc3c(cc2C1C1OC(=O)c2c1ccc1c2OCO1)OCO3 (centres undefined)	-16%	-11%
Cc1ccc(-n2c(N)cc(=O)nc2SCC(=O)N2CCN(c3ccccc3)CC2)cc1C	-14%	-2%
COc1ccccc1C(=O)N/C(=C\c1cn(S(=O)(=O)N(C)C)c2ccccc12)C(=O)NCCCn1ccnc1	-7%	-2%
CC(=O)c1cccc(NC(=O)C(C)OC(=O)CCCN=C2NS(=O)(=O)c3ccccc32)c1 (centres undefined)	i	-3%
O=C(CNc1ccccc1OC(F)F)N1CCc2ccccc21	-5%	-9%
O=C(CSc1nc(O)c(Cc2ccccc2)c(=O)n1-c1ccccc1)N1CCOCC1	x	-8%
O=C(COc1ccccc1)NCC(=O)N/N=C/c1cccs1	-5%	1%
O=C1CCC(=O)N(O)CCCCCNC(=O)CCC(=O)N(O)CCCCCNC(=O)CCC(=O)N(O)CCCCCN1	6%	12%
Cc1c(/C(Cc2ccccc2)=N/O)c2ccccc2n1C	x	u
CCC(C)Sc1cc(-c2nc3ccccn3c2NC2CCCCC2)ccc1OC (centres undefined)	u	u
CC(=O)N1CCc2cc(S(=O)(=O)NC(C)c3ccccc3)ccc21 (centres undefined)	-20%	-14%
CCNC(=O)N1CCOCC1	i	-6%
COc1cc(C=C(c2nc3ccccc3s2)c2nc3ccccc3s2)ccc1O	-1%	i
CC(C)C[C@@H](CO)N1CCN(CCc2ccccc2)CCC1=O	u	-17%&-5%
COc1ccc(N2CCN(CC(=O)Nc3ccc(-n4cnnn4)cc3)CC2)cc1	i	0%
CCOC(=O)c1sc(=NC(=O)CCSc2ccccc2)n(C)c1C	-3%	-7%
O=[N+]([O-])c1ccc(CN2CCN(c3ccccc3)CC2)o1	-24%	-7%
O=C(NCCCc1nc2ccccc2n1Cc1ccc(Cl)cc1Cl)c1ccco1	-17%	-6%
COCc1cc(Sc2ccc(Cl)cc2)nc(C)n1	i	-14%
COc1ccc(C(=O)NCCn2cc(SCc3ccc(C(F)(F)F)cc3)c3ccccc32)cc1OC	u	u

New compounds follow.
SMILES	Vaccinia mCherry	VACV Venus inh
CC1CCCCN1C(=O)COC(=O)c1n[nH]c2ccccc12 (centres undefined)	x	-13%
COc1ccc2nc(-n3c(C)ccc3C)sc2c1	i	-12%
COc1ccc(/C(O)=C2\C(=O)C(=O)N(c3cc(C)on3)C2c2cccc(OC)c2OC)cc1C (centres undefined)	-13%	-5%
CCCNC(=O)c1onc(CSc2ccc(F)cc2)c1C(=O)NCCC	u	-7%
O=C(Nc1ccccc1F)C1CCN(C(=O)NC2CCCCC2)CC1	-15%	1%
CCOCCCNC(=O)c1c[nH]c2c(CC)cccc2c1=O	-15%	-7%
Cc1ccc(C(=O)N(C)CC(=O)Nc2cccc(F)c2)cc1S(=O)(=O)N1CCCCC1	i	-9%
O=C(CCCOc1ccc(Cl)cc1Cl)Nc1cccnc1	-9%	-17%
CCOP1(=O)C=C(Sc2ccc([N+](=O)[O-])cc2[N+](=O)[O-])C(C)(C)O1 (centres undefined)	i	-10%
Cc1ccc(CNC(=O)C2CCCN(c3nc4ccccc4o3)C2)cc1 (centres undefined)	2%	-5%
CCOc1ccc(Br)cc1C(=O)N/N=C/c1ccccn1	u	-15%
Cc1ccc(-c2nc(S(=O)(=O)c3ccc(C)cc3)c(N3CCOCC3)o2)cc1	3%	7%
COc1ccccc1NC(=O)C(=O)N/N=C(\C)CC(=O)Nc1ccccn1	-3%	-1%
CC(C)N(C)Cc1cn(C)nc1-c1ccc(Oc2ccccc2)cc1	-12%	-11%
Cn1c(=O)[nH]c(=O)c2c1nc(Sc1ccccc1)n2CCc1ccccc1	-6%	-27%
Cc1ccc2occ(CC(=O)N(Cc3ccc(Cl)cc3)C3CCS(=O)(=O)C3)c2c1 (centres undefined)	-7%	-5%
C=C(C1=CCN(S(=O)(=O)C(C)(C)C)[C@@H]1CCO)c1ccccc1	i	-5%
CNCCOc1ccccc1-c1ccccc1	-22%	-16%
O=C(O)Cn1cnc2scc(-c3cccs3)c2c1=O	-14%	-10%
Cc1ccc(OCC(=O)N2CCN(C(=O)CCC3CCCC3)CC2)cc1	x	-15%
CC(=O)NS(=O)(=O)c1ccc(N=c2ssc3c2-c2cc(C)ccc2NC3(C)C)cc1	-18%	-7%
CCN(CC)S(=O)(=O)c1ccc(C(=O)Nc2nnc(C(C)C)s2)cc1	i	-11%
COc1ccc(NC(=O)CCSc2nc(C)cs2)cc1	-10%	-15%
O=C(NC1CCS(=O)(=O)C1)c1cccc(Br)c1 (centres undefined)	-7%	-2%
COc1ccc(NC(=O)c2ccc3ncsc3c2)cc1	-6%	-5%
O=C(Cc1ccc([N+](=O)[O-])cc1)Nc1cccc(C(=O)N2CCCC2)c1	-10%	-19%
CCOc1ccc2[nH]c(=O)c(CN(CCCO)S(=O)(=O)c3ccc(F)cc3)cc2c1	-1%	-13%
CCc1cccc(C)c1NC(=O)CN1C(=O)NC(C)(CCC(C)C)C1=O (centres undefined)	-14%	-1%
COc1ccc([C@H]2[C@H](C(C)=O)N3N=Cc4ccccc4C3C23C(=O)OC(C)(C)OC3=O)cc1 (some centres undefined)	-6%	4%
Cn1nc(C(F)(F)F)c(-c2cccc(C(F)(F)F)c2)c1NC(=O)c1nccnc1C(=O)O	i	-3%
COc1cccc(/C=C/C(=O)OCC(=O)NC2CCCCCCC2)c1	-19%	-9%
CCCNC(=O)c1nc(C)n(-c2cc(Cl)ccc2Cl)n1	i	17%
Cc1noc(C)c1-c1ccc(C(=O)NCc2ccncc2)c2occc12	u	-13%
O=C1CC[C@@H](CN(Cc2ccccc2)Cc2cn[nH]c2-c2cc3ccccc3o2)N1	-12%	-10%
COCCSc1ccccc1C(=O)NCC1CCCO1 (centres undefined)	i	5%
O=C(NCCCN1CCN(c2cccc(Cl)c2)CC1)c1ccc2nc(Cc3ccccc3)oc2c1	-27%	-28%
COc1ccccc1NC(=O)C(C)OC(=O)CCCN=C1NS(=O)(=O)c2ccccc21 (centres undefined)	i	-18%
COCCCNC(=S)NNC(=O)c1ccc(S(=O)(=O)N2CCC(C)CC2)cc1	i	-6%
COc1ccc(NC(=O)COc2nc(N(C)C)nc(N(C)C)n2)cc1	i	-14%
C=CCOn1c(=O)c(-c2ccc(C)cc2)[n+]([O-])c2ccccc21	-13%	-9%
O=C(c1cc(F)cc(F)c1)N1CCC(c2nc(-c3ccc(S(=O)(=O)N4CCCC4)cc3)no2)CC1	-15%	-22%
COc1cc(C(C)=O)ccc1OCC(=O)Nc1cc(Cl)ccc1-n1cncn1	-12%	-5%
CN(C)C=NC(=O)/C(C#N)=C1\CCc2ccccc2N1	x	u
Cc1ccccc1Nc1c(-c2cccc(Cl)c2)nc2ncccn12	i	-21%
C=Cn1cc[n+](CC(=O)c2ccc(C)cc2)c1	-4%	-13%

Among those listed so far, these have a nitro group on carbon.
SMILES	Vaccinia mCherry	VACV Venus inh
CC(C)(c1ccc(O)c([N+](=O)[O-])c1)c1ccc(O)c([N+](=O)[O-])c1	-27%	2%
Cc1csc(/N=C/c2ccc([N+](=O)[O-])cc2)n1	-15%	-15%
COc1ccc(NC(=O)CN(C)CC(=O)Nc2ccc(Cl)cc2[N+](=O)[O-])cc1	-23%	-17%
CCn1c(SCC(=O)N/N=C/C=C/c2ccccc2[N+](=O)[O-])nnc1-c1ccccc1	-14%	-4%
O=[N+]([O-])c1ccc(CN2CCN(c3ccccc3)CC2)o1	-24%	-7%
CCOP1(=O)C=C(Sc2ccc([N+](=O)[O-])cc2[N+](=O)[O-])C(C)(C)O1 (centres undefined)	i	-10%
O=C(Cc1ccc([N+](=O)[O-])cc1)Nc1cccc(C(=O)N2CCCC2)c1	-10%	-19%

Going on with the list.
SMILES	Vaccinia mCherry	VACV Venus inh
OC1CCN(C(c2ccc3ncccc3c2)c2nnnn2C2CCCCC2)CC1 (centres undefined)	-9%	-6%
O=C(CCCN1C(=O)c2ccccc2C1=O)Nc1c2c(nc3c1CCC3)CCC2	-2%	-5%
CCNC(=S)NNC(=S)NCc1ccccc1	-15%	-12%
O=C(NCCc1ccc(F)cc1)C(=O)NCC1CCCN1S(=O)(=O)c1cccs1 (centres undefined)	-21%	-26%
CCC(=O)c1ccc(OCC(=O)OC(C)C(=O)N2CCc3ccccc32)cc1 (centres undefined)	-10%	-4%
COc1cccc(N2C(=O)CSC23C(=O)N(Cc2ccccc2F)c2ccccc23)c1 (centres undefined)	-15%	1%
Cc1cc2nc3n(c2cc1C)CC1CC(C(=O)NCc2cccc(Br)c2)N(C)C31 (centres undefined)	u	-11%
CCSc1nnc(NC(=O)C2CCCN(S(=O)(=O)c3cnc[nH]3)C2)s1 (centres undefined)	3%	-4%
Cc1ccc(COc2ccc(CNCCCN3CCCCCC3=O)cc2)cc1	-15%	-3%

Assay outcomes deposited in PubChem BioAssay by National Center for Advancing Translational Sciences (NCATS).
